PINK1 expr mod = A Quantitative High throughput Screen to Identify Chemical Modulators of PINK1 Expression; AID 624263, 2012; Potency, µM (doses to about 76.6 µM), for the others: at the highest dose activation (PINK1 increase), usual class: activators; PINK1 immunofluorescence, high-content cytometry, 24 h; hit rate 0.2% among 410,000; active = well fitted activation curve with a large enough effect; inconclusive = small, poorly fitted or top-dose-only effect; inactive = flat fitted curve, though single readings scatter; cell line not stated here;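 also: % of control where 0% means no effect; nearly all actives have a fitted effect of over 65% in size; a mitochondrial uncoupler was the plate control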
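Readout is PINK1 immunofluorescence, quantified alongside mitochondrial, cell and nuclear markers by laser-scanning microplate cytometry. Cells from a stable line were exposed to compound titrations (5 concentrations) for 24 hours, with CCCP controls.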
ClpP mod = qHTS Assay for Activators of ClpP; AID 651965, 2013; hit rate 1.9% among 340,000; purified B. subtilis ClpP, FRET peptide cleavage, 20 min; Potency, µM (doses to about 57.5 µM), inactives show at the top dose activity change, negative = active; active = well fitted falling curve with a large enough effect; inconclusive = small, poorly fitted or top-dose-only effect; inactive = no such curve, though single readings can be large or run the other way; also: the source files actives as falling curves though it sought activators and does not explain the sign; nearly all actives have a fitted effect of over 65% in size; many hits overshoot -100%
Target sequence (P80244 whole entry, looked up): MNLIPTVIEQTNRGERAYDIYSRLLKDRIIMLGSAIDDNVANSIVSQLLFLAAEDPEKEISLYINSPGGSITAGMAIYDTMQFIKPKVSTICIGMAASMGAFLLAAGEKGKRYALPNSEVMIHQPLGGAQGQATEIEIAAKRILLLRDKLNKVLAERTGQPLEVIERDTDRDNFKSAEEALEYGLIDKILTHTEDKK
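Buffer: 100 mM Tris/HCl pH8, 100 mM KCl, 0.05% low protease BSA, 2.5% glycerol, 0.01% Tween-20. ClpP 10 microg/mL final; 20 min RT; delta FRET normalized to ADEP and DMSO controls.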
Active calls of the source: *; ? = inconclusive. Potency is read from the fitted curve at half-maximal effect.

canonical_smiles	PINK1 expr mod	ClpP mod
COc1cccc(C2C(C(=O)Nc3ccccc3)=C(C)Nc3nc(-c4ccccc4)nn32)c1OC (stereo not given)	0.7%	-1.4%
CCCn1cc(S(=O)(=O)c2cc(C)ccc2C)c(=O)c2cc(F)c(N3CCOCC3)cc21	?	5.0%
C[C@H]1COc2cc(N3CCSCC3)ccc2S(=O)(=O)N1	-0.7%	-5.7%
O=C(c1ccc2c(c1)OCCO2)N(Cc1cccnc1)c1nc2c(F)cccc2s1	3.5%	-3.8%
CC1=C(C(=O)OC2CCCCCC2)C(c2ccccc2Cl)CC(=O)N1 (stereo not given)	7.5%	-1.1%
Cc1nc2c(c(SCC(=O)Nc3ccccc3C(F)(F)F)n1)CCC2	1.3%	0.1%
Cc1cc(C)n(-c2nc3cc(Cl)ccc3nc2Nc2ccc(C)c(F)c2)n1	0.4%	0.0%
CCOc1ccc(CCNC(=O)c2cccc(-n3c(C)nc4cccnc43)c2C)cc1	2.8%	-2.6%
Cc1c(C(=O)Nc2cccc(-c3nc4ccccc4s3)c2)oc2ccc(F)cc12	1.2%	?
Cc1cccc(-c2nnn3c2nc(NCc2ccc4c(c2)OCO4)c2ccccc23)c1	0.8%	?
CCOC(=O)N1CCc2c(sc3c2c(=O)n(-c2ccc(Cl)cc2)c(=O)n3CC(C)C)C1	2.6%	2.2%
Cc1ccccc1-n1nc(CO)c(C(=O)NCCc2ccccc2)n1	-0.8%	-4.6%
O=S(=O)(c1ccc(OC(F)(F)F)cc1)N1CCC(c2nc3ccccc3s2)CC1	-0.3%	-1.6%
Cc1cccn2c(=O)c(C(=O)N3CCN(c4ccccc4F)CC3)cnc12	0.3%	-5.1%
Cc1ccc2oc(=O)c3cc(C(=O)Nc4ccc(F)cc4F)sc3c2c1	2.6%	-2.1%
Fc1ccccc1N1CCN(c2ncnc3onc(-c4ccc(Cl)cc4)c23)CC1	2.8%	-4.7%
CCOC(=O)c1cc(S(=O)(=O)N2CCN(c3ccccc3F)CC2)[nH]n1	-0.4%	2.5%
COc1ccc(N2CCN(Cc3nc4c(c(=O)[nH]c(=O)n4C)n3Cc3ccc(C)cc3)CC2)cc1	0.4%	-2.9%
CNc1ccc(/C=C2\C=Cc3ccccc32)cc1I	8.5%	-1.6%
CCc1ccc(NC(=O)Cn2c(C(=O)OC)cc3oc(C)cc32)cc1	0.9%	-0.2%

Continued, starting with the last five of the part before.
canonical_smiles	PINK1 expr mod	ClpP mod
Fc1ccccc1N1CCN(c2ncnc3onc(-c4ccc(Cl)cc4)c23)CC1	2.8%	-4.7%
CCOC(=O)c1cc(S(=O)(=O)N2CCN(c3ccccc3F)CC2)[nH]n1	-0.4%	2.5%
COc1ccc(N2CCN(Cc3nc4c(c(=O)[nH]c(=O)n4C)n3Cc3ccc(C)cc3)CC2)cc1	0.4%	-2.9%
CNc1ccc(/C=C2\C=Cc3ccccc32)cc1I	8.5%	-1.6%
CCc1ccc(NC(=O)Cn2c(C(=O)OC)cc3oc(C)cc32)cc1	0.9%	-0.2%
O=C(c1cnc(N2CCCCC2)c2ccccc12)N1CCN(c2ccccc2F)CC1	1.3%	-24.3%
O=C(Nc1nnc(S(=O)(=O)N2CCCC2)s1)c1ccc(F)cc1	2.5%	-2.7%
COc1cc2nc(NCc3ccccc3Cl)n3nc(-c4cccnc4)nc3c2cc1OC	3.3%	-8.2%
CCOc1ccc(CCNC(=O)c2ccc3[nH]c(C)c(C)c3c2)cc1	-0.7%	-17.4%
CCOc1ccc(S(=O)(=O)N2CCC(n3c(C)nc4cccnc43)CC2)cc1	1.6%	-0.4%
O=C(NCc1ccc(Cl)cc1)c1cc2ccccc2o1	0.8%	-18.0%
Cc1c(Cl)cccc1NC(=O)CSc1nc(=O)n(Cc2ccco2)c2c1CCC2	-1.2%	-6.1%
COc1cc2c(NC3CCN(C)CC3)nc(N3CCCN(C)CC3)nc2cc1OCCCCN	-0.5%	3.9%
CCc1ccc(CNC(=O)c2ccc3nc(SCc4ccc(F)cc4)n(C)c3c2)cc1	2.4%	0.2%
Cc1ccc(C)c(NC(=O)c2nnn(CC(=O)Nc3cccc(C)c3C)c2N)c1	-2.8%	0.1%
Cc1c(CC(=O)NCc2ccc(F)cc2)c(=O)oc2cc(O)c(Cl)cc12	-0.3%	4.3%
Cc1ccccc1OCC(=O)Nc1ccc(-c2nc3ncccc3o2)cc1	-0.4%	4.5%
COc1ccc(NC(=O)Cn2c(=O)n(Cc3ccco3)c(=O)c3sc4ccccc4c32)cc1OC	4.9%	-4.6%
Cc1ccc(NC(=O)Cn2c(=O)n(Cc3ccc4c(c3)OCO4)c(=O)c3ccccc32)c(C)c1	1.8%	-6.3%
Cc1ccc(NC(=O)Cn2ncc3c4ccccc4n(Cc4ccccc4)c3c2=O)cc1Cl	4.8%	-6.1%
Cc1ccc(N2CCN(c3nc4c(S(=O)(=O)c5ccc(C)c(C)c5)nnn4c4ccccc34)CC2)c(C)c1	0.2%	0.9%
CCOc1ccc(CCNc2ncnc3onc(C)c23)cc1OCC	3.9%	2.2%
O=C1c2oc3ccccc3c(=O)c2C(c2cccc(Cl)c2)N1c1ccccn1 (stereo not given)	1.7%	-2.8%
CCOC(=O)c1[nH]c(C)c(C(=O)NCc2cccc(OC)c2)c1C	-0.8%	-3.6%
COc1cc(Cl)c(NC(=O)CCc2nc3cccnc3n2-c2ccccc2)c(OC)c1	0.3%	-3.9%
COc1cc2ccccc2cc1C(=O)Nc1cc(-c2nc3ccccc3o2)ccc1C	4.7%	-5.0%
CCOc1cccc(C2C=C(c3ccc4c(c3)OCO4)NC(c3ccccc3F)N2)c1O (stereo not given)	0.4%	-1.9%
Cc1cccc(Cc2cnc(NC(=O)C3Cc4ccc(C)cc4C(=O)O3)s2)c1 (stereo not given)	-1.2%	0.4%
CC(=O)c1cccc(NC(=O)C(Cc2ccccc2)NS(=O)(=O)c2ccc(Br)s2)c1 (stereo not given)	6.9%	-1.9%
CC(C)CCNC(=O)N1CCN(S(=O)(=O)c2ccc3c(ccn3C)c2)CC1	-0.3%	-1.0%
CCCN(CCC)C(=O)Cn1c(=O)n(-c2cccc(C)c2)c(=O)c2c1c1cc(OC)ccc1n2C	5.7%	4.4%
COc1cccc(CNC(=O)C2CCCN(c3nnc(-n4c(C)ccc4C)s3)C2)c1 (stereo not given)	4.4%	-2.0%
CCOC(=O)c1ccccc1NC(=O)CN1CCCN(Cc2cc(C)ccc2C)S1(=O)=O	3.9%	?
COc1ccc(-n2c(=O)c3ccc(C(=O)NCc4ccc(C)cc4)cc3n(Cc3ccc(Cl)cc3)c2=O)cc1	-2.7%	0.5%
O=C(Nc1ccc(F)cc1F)c1ccc(CN2CC(=O)N3CCCCC3C2=O)cc1 (stereo not given)	1.3%	2.0%
COc1ccc(NC(=O)c2sc3nc4c(cc3c2N)CN(Cc2ccccc2)CC4)cc1	?	-2.9%
O=C(O)C1Nc2ccccc2C2C=CCC12 (stereo not given)	0.6%	-9.0%
CC(C)(C)C(=O)c1c(N)[nH]c(C(=O)c2ccccc2)c1-c1cc2ccccc2nc1Cl	-1.1%	-25.7%
CC(C)C[C@H]1CN(CCCC[C@@H]2CNC(=O)C(=O)N2CCc2ccccc2)C(=O)C(=O)N1Cc1ccccc1	-0.8%	-0.4%
O=C(Nc1cccc(C(F)(F)F)c1)N1CC2CCCN2c2ccccc21 (stereo not given)	0.9%	-13.1%
COc1ccc(CCNC(=O)C2(c3cccs3)CCOCC2)cc1OC	3.2%	-2.1%
COc1ccc(CCNC(=O)Cn2cc(S(=O)(=O)Cc3ccc(F)cc3)c3ccccc32)cc1OC	0.3%	-0.7%
Cc1ccc(-c2noc(-c3nnn(CC(=O)Nc4ccc(C)c(Cl)c4)c3N)n2)cc1	-0.1%	0.6%
COc1ccc2oc(=O)c(C(=O)N3CCN(c4ccc(C)cc4)CC3)cc2c1	0.8%	-2.5%
Cc1nn(-c2ccc(N3CCCC3)nn2)c(C)c1CCC(=O)N1CCN(c2ccccc2)CC1	1.2%	-3.2%
COc1ccccc1NC(=O)c1c(NC(=O)COc2ccccc2)sc2c1CCCCC2	-0.6%	3.1%
Cc1ccccc1C(=O)Nc1cccc(OCc2cc(=O)n3c4c(sc3n2)CCCC4)c1	0.6%	-27.8%
O=S(=O)(c1cccc(Cl)c1)c1nnn2c1nc(NCc1ccc3c(c1)OCO3)c1sccc12	1.3%	?
CCn1c(=O)c2sccc2n2c(CCC(=O)Nc3ccc(F)cc3)nnc12	0.9%	-6.7%
Clc1cccc(CSc2nc(NCCc3ccccc3)c3ccccc3n2)c1	1.9%	-3.4%
COc1cccc(NC(=O)Cn2c(=O)n(-c3ccc(CC(=O)NCC4CCCO4)cc3)c(=O)c3ccccc32)c1 (stereo not given)	3.7%	-11.7%
CCNc1nc(-c2sc(NC(=O)C(C)(C)C)nc2C)c(-n2cc(-c3ccccc3)nn2)s1	-0.5%	?
COCCNC(=O)C1CCN(c2nc3ccccc3nc2C(F)(F)F)CC1	2.5%	0.9%
CC1CCN(C(=O)c2cc(-c3ccc(Cl)cc3)on2)CC1	3.6%	0.3%
Cc1cc2nc(-c3cccc(Br)c3)c(Cc3ccsc3)n2c(C)c1Br	0.8%	-1.7%
O=S1(=O)CC(N2CCN(CCO)CC2)CN1Cc1cn(Cc2cccc(Cl)c2)nn1 (stereo not given)	1.7%	-0.4%
CCOCCc1nnc(NC(=O)C(=O)c2cc(C)n(-c3cccc(C)c3)c2C)s1	-0.6%	-1.5%
CC1=C(C(=O)Nc2ccc(C)cc2C)C(c2sccc2C)n2ncnc2N1 (stereo not given)	-3.7%	-2.2%
CCOC(=O)c1ccc(N2C(=O)c3[nH]nc(-c4ccc(OC)cc4)c3C2c2ccccc2Cl)cc1 (stereo not given)	-0.8%	0.5%
CCOC(=O)c1c(NC(=O)C(C)Sc2cn(CCNC(=O)c3ccc(OC)cc3)c3ccccc23)sc2c1CCC2 (stereo not given)	1.6%	-3.7%
COCCCNC(=O)C[C@@H]1C[C@@]2(C(=O)OC)CCCCC=C2N(CCC2=CCCCC2)C1=O	2.1%	1.4%
Cc1cccc(OCCSc2nc3ccccc3n2CC(=O)N2CCOCC2)c1C	0.1%	-0.2%
COc1ccc(/C=C/C(=O)Nc2ccc3nc(N4CCCCC4)cc(C)c3c2)cc1OC	0.1%	-1.4%
COC(=O)c1ccccc1NC(=O)c1cnc2sc(N3CCOCC3)nn2c1=O	1.1%	-10.0%
CCCCOc1ccc(S(=O)(=O)Nc2ccc(-c3ccc(N4CCCCC4)nn3)cc2)cc1	0.1%	-13.2%

(continued)
canonical_smiles	PINK1 expr mod	ClpP mod
Cc1ccc(-c2c3c(=O)n(C)c(=O)n(C)c3c3c(C(F)(F)F)nc4ccccc4n23)cc1	6.2%	3.1%
CCCc1nnc(NC(=O)Cc2coc3ccc(C)cc23)s1	-0.7%	0.0%
COc1ccccc1NC(=O)c1sc2nc(C)c(C(=O)Nc3ccc(Cl)cc3)c(-c3ccc(Br)cc3)c2c1N	13.4%	-5.2%
COc1ccc(-c2cc(C(C)=O)c(C)n2CCC(=O)NCc2ccc(F)cc2)cc1	-1.6%	1.6%
CCc1ccccc1NS(=O)(=O)c1ccc2c(c1)OCC(C(=O)N1CCCC1)O2 (stereo not given)	-0.1%	-0.6%
COc1ccc(CNC(=O)C(C)n2ccc3cc(S(=O)(=O)N4CCCC4)ccc32)cc1OC (stereo not given)	-1.6%	-2.3%
CN(C)C1CN(Cc2cn(Cc3ccccc3)nn2)S(=O)(=O)C1 (stereo not given)	0.9%	1.8%
Cc1cccc(N2C(=O)N(CC(=O)C(C)(C)C)c3ccccc3S2(=O)=O)c1C	0.9%	-0.8%
Cc1ccc(Sc2ccc(N3CCC(C(=O)Nc4ccc(Cl)cc4)CC3)nn2)cc1	0.8%	-0.8%
CNC(=O)C1CCC(Cn2c(=O)c3sccc3n(CC(=O)Nc3ccc(C)c(C)c3)c2=O)CC1 (stereo not given)	0.8%	0.0%
O=C(Nc1ccc2nc(SCC(=O)N3CCOCC3)sc2c1)c1ccc(Cl)cc1	0.9%	25.9%
Cc1cc(C)c(NC(=O)Cn2nnc(-c3nc(-c4ccncc4)no3)c2N)c(C)c1	0.2%	-1.9%
CCOC(=O)c1noc2nc(C)n(CC(=O)Nc3cccc(OC)c3)c(=O)c12	-0.1%	-2.6%
Cc1ccc(Cl)cc1NS(=O)(=O)c1ccc(N2CCCCS2(=O)=O)cc1	0.8%	-5.7%
CCCn1c(=O)c2sccc2n2c(CCCC(=O)NCCc3ccc(Cl)cc3)nnc12	-0.3%	?

Single records (already shown). Screens in order: PINK1 expr mod, ClpP mod
`COc1cc2ccccc2cc1C(=O)Nc1cc(-c2nc3ccccc3o2)ccc1C` is entered as 4.7%, -5.0%
`CCCn1cc(S(=O)(=O)c2cc(C)ccc2C)c(=O)c2cc(F)c(N3CCOCC3)cc21` is entered as ?, 5.0%

This is a subset. The share of hits here may be higher or lower than overall.
